Bioassay records (PubChem BioAssay)
TRPML1 blocker – qHTS for Inhibitors of the Human Mucolipin Transient Receptor Potential 1 (TRPML1); Mucolipin-1 (Homo sapiens), Q9GZU1; TRPML1-inducible cells, Ca2+ dye fluorescence, FDSS; active compounds read low; inhibition of EC80 agonist-evoked calcium signal; activity change, negative = inhibition, % (concentration not given with the values); 390,000 tested, 0.02% active; AID 624415, 2012; in the data active means activity change below about -50%; inconclusive means about -30% to -50%; inactive means above about -30%;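 further: stimulus is agonist 54-4 at its EC80 concentration; on the % scale 0 is the no-effect control and ±100 the full control effect; the text of the record puts the active cut at -80%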
Target sequence (Q9GZU1 whole entry, looked up): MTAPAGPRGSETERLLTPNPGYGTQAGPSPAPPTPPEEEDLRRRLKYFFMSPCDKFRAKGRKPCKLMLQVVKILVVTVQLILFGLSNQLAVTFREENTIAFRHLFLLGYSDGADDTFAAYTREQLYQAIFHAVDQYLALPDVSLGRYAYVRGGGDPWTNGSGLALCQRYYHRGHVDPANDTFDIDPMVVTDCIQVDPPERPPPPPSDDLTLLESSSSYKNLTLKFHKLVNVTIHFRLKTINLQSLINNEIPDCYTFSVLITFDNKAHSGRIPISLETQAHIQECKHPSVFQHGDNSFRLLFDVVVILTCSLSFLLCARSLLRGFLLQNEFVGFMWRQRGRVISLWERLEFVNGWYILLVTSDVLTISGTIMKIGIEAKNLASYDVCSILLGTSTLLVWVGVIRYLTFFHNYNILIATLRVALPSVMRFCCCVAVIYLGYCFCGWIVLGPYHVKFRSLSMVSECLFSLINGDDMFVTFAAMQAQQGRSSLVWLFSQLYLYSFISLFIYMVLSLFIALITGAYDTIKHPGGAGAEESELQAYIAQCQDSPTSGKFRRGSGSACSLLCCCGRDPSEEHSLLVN
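Calcium fluorescence in TRPML1-DL cells induced overnight with Tet: a 110 s read after compound pin addition, then a 110 s antagonist read after challenge with 54-4 at 4 uM final (EC80).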
Six1-Eya2 inh – qHTS Assay for Inhibitors of the Six1/Eya2 Interaction | AID 651725, 2012 | activity change, % (test concentration not listed) | Homeobox protein SIX1 (Homo sapiens) + Protein phosphatase EYA2 (Homo sapiens), … | 360,000 tested, 0.56% active | AlphaScreen GST-Six1/His-Eya2 binding, biochemical; active compounds read low; control for the full effect not named in the record; in the data active = activity change below about -65%; inconclusive = about -30% to -65%; inactive = above about -30%; further: on the % scale 0 is the no-effect control and ±100 the full control effect
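Six1/Eya2 binding was read as AlphaScreen signal after compounds were pinned into GST-Six1 plus His-tagged Eya2 (5X stock 250/500 nM) in pH 8.0 Tris/NaCl/TCEP buffer, beads added, then incubated 1 h, 37 C, dark.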
D2 agonist – Beta-Arrestin HTS for Positive Allosteric Modulators of the Human D2 Dopamine Receptor: Agonists; 360,000 tested, 0.084% active; DiscoveRx PathHunter D2 beta-arrestin, luminescence, 90 min; 100% = 57 uM dopamine signal; D(2) dopamine receptor (Homo sapiens), P14416; activation, % (no concentration beside the values); in the data active = activation above about 40%; inconclusive = about 15% to 40%; inactive = below about 15%; further: compound concentration not given in the record; the text of the record calls up to 30% inactive
Target sequence (P14416 whole entry, looked up): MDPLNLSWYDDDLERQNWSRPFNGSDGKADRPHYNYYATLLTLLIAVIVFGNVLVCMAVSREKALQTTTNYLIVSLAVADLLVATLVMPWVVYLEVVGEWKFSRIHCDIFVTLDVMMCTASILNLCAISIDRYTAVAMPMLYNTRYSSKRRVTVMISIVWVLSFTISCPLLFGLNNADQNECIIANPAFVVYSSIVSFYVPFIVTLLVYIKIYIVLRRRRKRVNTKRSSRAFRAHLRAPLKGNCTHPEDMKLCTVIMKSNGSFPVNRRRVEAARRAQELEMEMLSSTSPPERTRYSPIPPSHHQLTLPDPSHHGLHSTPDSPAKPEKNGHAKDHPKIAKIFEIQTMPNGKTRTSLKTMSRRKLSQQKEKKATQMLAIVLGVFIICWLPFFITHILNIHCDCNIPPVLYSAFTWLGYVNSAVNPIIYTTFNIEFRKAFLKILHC
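DiscoveRx PathHunter D2 beta-arrestin cells (2,100/well) attached overnight, then compound-stimulated 90 min at 37 C in HBSS/10 mM HEPES/0.1% Tween-20 buffer; beta-galactosidase complementation read by luminescence after 1 h at ambient temperature. Dopamine 57 uM final (EC100) as control.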
PINK1 expr mod – A Quantitative High throughput Screen to Identify Chemical Modulators of PINK1 Expression. AID 624263, 2012. Potency, µM (top dose mostly 76.6 µM), for the others: top-dose activation (PINK1 increase), usual class: activators. PINK1 immunofluorescence, high-content cytometry, 24 h. 410,000 tested, 0.2% active; active = well fitted activation curve with a large enough effect; inconclusive = small, poorly fitted or top-dose-only effect; inactive = flat fitted curve, though single readings scatter; cell line not stated here;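 further: potency means the concentration at half of the fitted maximal effect; % of control where 0% means no effect; nearly all actives have a fitted effect of over 65% in size; a mitochondrial uncoupler was the plate control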
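PINK1 protein, normally rapidly degraded, was detected by immunofluorescence after 24 hour compound treatment of a stable cell line. Titration data (5 concentrations) came from laser-scanning cytometry, with CCCP-treated wells as controls.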
D2 PAM – Beta-Arrestin HTS for Positive Allosteric Modulators of the Human D2 Dopamine Receptor: Potentiators; D(2) dopamine receptor (Homo sapiens), P14416; DiscoveRx D2 beta-arrestin cells, luminescence, 90 min; 100% = 57 uM dopamine signal; potentiation, % (test concentration not listed); 360,000 tested, 0.23% active; active = potentiation of 50% or more; inconclusive = 30% to 50%; inactive = 30% or less;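 further: compound concentration not given in the record; tested on top of an EC20 dose of dopamine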
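PathHunter D2 cells, attached overnight at 37 deg C, received compound in DMSO plus dopamine at EC20 (50 nM final) for 90 min at 37 deg C. Beta-arrestin recruitment was read as luminescence after 1 h with detection reagent at ambient temperature.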
TRPML1 ag – qHTS for Agonists of the Human Mucolipin Transient Receptor Potential 1 (TRPML1); TRPML1-expressing cells, Ca2+ dye fluorescence, FDSS; host cell line not named in the record; reference of the full effect not given here; Mucolipin-1 (Homo sapiens), Q9GZU1; AID 624414, 2012; 410,000 tested, 0.12% active; activation, % (no concentration beside the values); in the data active = activation above about 50%; inconclusive = about 30% to 50%; inactive = below about 30%; further: 0% is about no effect; the text of the record puts the active cut at 80%
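Tetracycline-induced TRPML1-DL cells are seeded and incubated overnight before loading with a no-wash Ca2+ dye and quencher. Agonist activity is taken from the 110 s fluorescence read following compound pin-transfer on an FDSS, before EC80 54-4 challenge.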
Starred values were filed as active, the others as inactive; ? = inconclusive; / = no result given; & = joins results of further samples; [ ] = remark or other dose.

SMILES	TRPML1 blocker	Six1-Eya2 inh	D2 agonist	PINK1 expr mod	D2 PAM	TRPML1 ag
CN(C)CCCN(C(=O)c1ccc(S(=O)(=O)N2CCCCCC2)cc1)c1nc2cc3c(cc2s1)OCO3	-1.4	-24.5	-2.3	2.0%	-31.9	1.4
CCCCOc1ccc(CNC(=O)NS(=O)(=O)c2ccc(OCC)cc2)cc1	3.9	-0.8	0.2	-1.3%	-12.5	-0.4
CCCCCn1c(SCC(=O)CC(=O)OCC)nc2cc(C(=O)N3CCC(C(N)=O)CC3)ccc2c1=O	8.7	-1.5	-1.2	0.0%	-4.4	0.4
COc1ccc(C2=NN(C(C#N)c3ccc(OC)c(OC)c3)C(c3ccccc3)C2)cc1 (stereo unspecified)	6.2	11.0	-1.4	6.7%	-12.2	-0.4
CCN(C(=O)c1ccc2c(c1)OCO2)C12CC3CC(CC(C3)C1)C2	23.6	1.6	11.0	6.3%	-0.5	0.3
O=C(C1CCN(S(=O)(=O)c2ccccc2)CC1)N1CCN(Cc2ccccc2)CC1	-0.7	-0.9	-3.4	-0.2%	?	0.2
C=CCN1C=C2C(=O)C(C)(OC(=O)c3cnc4ccccc4n3)C(=O)C=C2C=C1/C=C/COC (stereo unspecified)	11.9	-8.4	-0.9	4.9%	2.3	-0.4
CC(=O)N1c2ccc(S(=O)(=O)NCC3CCC(C(=O)N4CCC(C)CC4)CC3)cc2CC1C (stereo unspecified)	9.8	4.8	4.0	0.7%	-2.4	-1.2
Cc1ccc(/C=C/C(=O)OCC(=O)NC(=O)NCc2ccccc2)cc1	-6.7	-1.0	-3.8	7.8%	-2.9	0.9
CCCNC(=O)c1cc(-c2ccco2)on1	8.9	0.2	-1.3	3.5%[38.3 µM]	4.8	-0.4
Cc1ccccc1NS(=O)(=O)c1ccc(C(=O)NCC(c2ccco2)N2CCCCC2)cc1 (stereo unspecified)	-6.3	-6.7	1.5	-0.4%	-13.9	0.0
COc1ccccc1NC(=O)COc1ccc(Br)cc1CNC1CCCC1	8.1	4.8	-1.6	29.6%	-24.7	-0.3
CC(C)CCN1CCNC(=O)C1CC(=O)Nc1ccc(F)cc1 (stereo unspecified)	10.3	0.0	-0.4	-2.0%	-15.6	0.7
Cn1c(SCC(=O)c2ccc(O)c(O)c2)nnc1-c1ccccc1	18.6	4.2	?	-2.9%	-0.3	1.6
CSCCC1NC(=O)C(C(C)=Nc2ccccc2)=C1O (stereo unspecified)	-11.3	0.0	0.2	3.0%	-14.7	0.2
COc1ccccc1C(=O)Nc1nnc(SCC(=O)NCC2CCCO2)s1 (stereo unspecified)	-11.5	2.2	-3.0	-1.1%	-6.2	0.2
CCOc1ccc2nc(SCC(=O)Nc3cccc(S(=O)(=O)NC4=NCCCCC4)c3)[nH]c2c1	-7.5	-24.7	3.9	-0.3%	2.0	0.2
C#CCNC(=O)C[C@@H]1C[C@@]2(C(=O)OCC)CCC=C2N(Cc2ccco2)C1=O	/	-7.7	/	0.3%	/	-0.5
CC1=C(C(=O)OCC2CCCO2)C(c2ccccc2)NC(=O)N1 (stereo unspecified)	47.7	1.8	-0.7	/	-16.3	0.8
Cn1c(=O)c2c(nc(SCC(=O)NCc3ccc4c(c3)OCO4)n2Cc2ccccc2)n(C)c1=O	-6.5	2.1	-1.7	5.8%	-0.1	-0.3

Entries of single compounds, quoted from the list. Order of screens: TRPML1 blocker | Six1-Eya2 inh | D2 agonist | PINK1 expr mod | D2 PAM | TRPML1 ag
`Cc1ccccc1NS(=O)(=O)c1ccc(C(=O)NCC(c2ccco2)N2CCCCC2)cc1` (stereo unspecified) across the screens: -6.3 | -6.7 | 1.5 | -0.4% | -13.9 | 0.0
`COc1ccccc1C(=O)Nc1nnc(SCC(=O)NCC2CCCO2)s1` (stereo unspecified) across the screens: -11.5 | 2.2 | -3.0 | -1.1% | -6.2 | 0.2
`CC1=C(C(=O)OCC2CCCO2)C(c2ccccc2)NC(=O)N1` (stereo unspecified) across the screens: 47.7 | 1.8 | -0.7 | / | -16.3 | 0.8
`CC(=O)N1c2ccc(S(=O)(=O)NCC3CCC(C(=O)N4CCC(C)CC4)CC3)cc2CC1C` (stereo unspecified) across the screens: 9.8 | 4.8 | 4.0 | 0.7% | -2.4 | -1.2
`CCOc1ccc2nc(SCC(=O)Nc3cccc(S(=O)(=O)NC4=NCCCCC4)c3)[nH]c2c1` across the screens: -7.5 | -24.7 | 3.9 | -0.3% | 2.0 | 0.2

Looked up above.
Entry of Cn1c(=O)c2c(nc(SCC(=O)NCc3ccc4c(c3)OCO4)n2Cc2ccccc2)n(C)c1=O in TRPML1 ag: -0.3
Entry of CSCCC1NC(=O)C(C(C)=Nc2ccccc2)=C1O (stereo unspecified) in TRPML1 ag: 0.2
Entry of CCCNC(=O)c1cc(-c2ccco2)on1 in TRPML1 blocker: 8.9
Entry of CCN(C(=O)c1ccc2c(c1)OCO2)C12CC3CC(CC(C3)C1)C2 in PINK1 expr mod: 6.3%

Part of the list above in order of heavy-atom count, smallest number first.
SMILES	TRPML1 blocker	Six1-Eya2 inh	D2 agonist	PINK1 expr mod	D2 PAM	TRPML1 ag
CC(C)CCN1CCNC(=O)C1CC(=O)Nc1ccc(F)cc1 (stereo unspecified)	10.3	0.0	-0.4	-2.0%	-15.6	0.7
COc1ccccc1NC(=O)COc1ccc(Br)cc1CNC1CCCC1	8.1	4.8	-1.6	29.6%	-24.7	-0.3
C#CCNC(=O)C[C@@H]1C[C@@]2(C(=O)OCC)CCC=C2N(Cc2ccco2)C1=O	/	-7.7	/	0.3%	/	-0.5

Later entries
SMILES	TRPML1 blocker	Six1-Eya2 inh	D2 agonist	PINK1 expr mod	D2 PAM	TRPML1 ag
COc1ccc(/C=C2/SC(=S)N(CCCC(=O)Nc3ccc(O)cc3)C2=O)cc1OC	4.2	-19.4	6.5	7.1%	4.3	2.8
CCc1cccc(CC)c1NC(=O)c1c(C)oc2ccc(O)c(CN3CCN(C)CC3)c12	-21.4	/	/	0.6%	/	-1.4
CC(CC(=O)N(C)C1CCCCC1)S(=O)(=O)c1ccc2c(c1)NC(=O)CO2 (stereo unspecified)	25.2	2.1	-7.0	-0.1%	-12.7	0.0
O=C(C1CCN(S(=O)(=O)c2ccc(Br)s2)CC1)N1CCN(c2cccc(Cl)c2)CC1	4.3	/	/	5.6%	/	1.9
CCNC(=O)c1c(NC(=O)c2cc(-c3cc(C)cc(C)c3O)n[nH]2)sc2c1CCCC2	-16.5	10.1	-2.1	9.1%	-4.7	-0.6
CCCSCCCNC(=O)c1ccc2nc(Cc3ccccc3)oc2c1	14.4	/	/	0.5%	/	1.6
O=S(=O)(c1ccc(F)cc1)N1CCCNCC1	-10.2	-0.9	-1.1	-0.5%	1.6	1.1
CCC1=NN(C(=O)C(=O)Nc2ccccc2OC)C(O)(C(F)(F)F)C1 (stereo unspecified)	8.2	19.2	-5.2	-5.4%[38.3 µM]	-12.0	0.0
COC(C[C@H]1O[C@@H]1[C@H](O)COCc1ccccc1)OC	-2.1	3.6	-3.8	0.0%	-8.5	0.1
Cc1[nH]nc(N=CC2=C(O)CC(C)(C)CC2=O)c1-c1ccccc1	-1.2&-2.0	7.6&6.0	2.5&2.4	-1.8%	-7.1&-8.5	1.8&1.3
CC1=C(C(N)=O)C(c2ccc(F)cc2)n2nc(CCCO)nc2N1 (stereo unspecified)	-21.7	11.3	9.8	-1.8%	2.1	1.6
CC(=O)Nc1ccc(Cc2ccncc2)cc1	43.8	10.3	1.0	2.5%	9.5	0.1
CCOCCCNCc1cccc(OC)c1	23.7	1.7	-0.4	0.4%[38.3 µM]	-12.3	-0.2
O=[N+]([O-])c1ccc(NNS(=O)(=O)c2cc(Cl)ccc2Cl)nc1	-26.3	-9.8	11.0	-1.1%	-4.3	0.2
CC(=O)c1ccc(OCc2cc(C(=O)N(C)CC3COc4ccccc4O3)no2)cc1 (stereo unspecified)	8.4	-4.7	-1.0	-0.7%	-6.1	-1.1
Cc1nn(CCC(=O)NNC(=S)Nc2ccc(F)cc2)c(C)c1[N+](=O)[O-]	-3.7	19.8	-6.0	-2.4%	-25.0	-0.6
CS(=O)(=O)NN1C(=O)c2ccccc2NC1c1cc2ccccc2nc1Cl (stereo unspecified)	1.4	-1.6	1.2	-1.9%	0.5	4.3
O=C(NCc1ccc(Cl)cc1)c1ccc(CS(=O)Cc2cccc(Cl)c2)o1 (stereo unspecified)	24.8	-1.3	2.0	1.1%	5.0	-0.6
CC(C)n1cc(-c2nc(C(=O)NN)cs2)c(=O)n(Cc2ccccc2)c1=O	-9.7	-6.7	8.8	2.7%	6.3	0.4
CCCCCc1nnc(NC(=O)C2=COCCO2)s1	17.7	8.4	-5.7	3.3%	-23.9	0.3
O=C(COc1ccc(Cl)cc1)NCCc1csc(-c2cccc(F)c2)n1	5.4	/	/	0.7%	/	2.1
CCOC(=O)c1c(NC(=O)c2ccc(OC)c(OC)c2)sc2c1CCCCC2	2.0	/	/	3.0%	/	0.4
O=C1CCc2cc(NS(=O)(=O)c3ccc([N+](=O)[O-])cc3)cc3c2N1CC3	0.2	29.4	5.4	-0.5%	21.5	0.9
CCOC(=O)CNS(=O)(=O)c1c(C)noc1C	-0.9	-4.9	1.2	0.9%	-7.6	-0.8
O=C(c1ccccc1C(=O)N1CCN(c2ccc(F)cc2)CC1)N1CCN(c2ccc(F)cc2)CC1	40.8	-4.1	-0.1	3.7%	-3.7	0.3
CCOC(=O)c1[nH]c2ccccc2c1NC(=O)C1CCCC1	1.1	0.2	-1.8	7.8%	-5.1	0.0
CCN(CC)CCCNc1nc2ccccc2[nH]1	-3.8	3.3	-3.4	0.4%	-7.5	0.1
Cc1ccc(/C=N/NC(=O)c2ccc3ccccc3c2)s1	6.8	-3.0	-2.1	3.6%	-13.6	2.2
CCOC(=O)CSc1nc2sc3c(c2c(=O)n1C1CCCCC1)CCN(C)C3	-4.8	-0.3	-6.2	1.1%	-3.2	-0.9
COCCNc1ccc2cc(S(=O)(=O)N3CCCCC3)ccc2n1	?	/	/	0.8%	/	2.1
CCOC(=O)c1cccc(Nc2c3c(nc4ccccc24)CCC3)c1	1.2	/	/	7.8%	/	-0.3
CCCCc1cc(=O)oc2c(C)c(OCC(=O)NCC3CCC(C(=O)O)CC3)ccc12 (stereo unspecified)	/	-23.7	-2.5	-1.3%	-11.6	/
O=C(NCCC1=CCCCC1)c1cccc2c1C(=O)N(C1CCCCC1)C2	48.1	5.3	-5.5	6.2%	-3.4	3.3
CCn1cc(C(=O)NC(C)c2ccccc2)c(=O)c2cc(S(=O)(=O)N3CCc4ccccc4C3)ccc21 (stereo unspecified)	-6.9	/	/	1.5%	/	-0.1
CCOC(=O)C1CCN(C(=O)Cn2cnc3sc(C)c(S(=O)(=O)N4CCCCC4)c3c2=O)CC1	3.2	-23.6	-4.6	1.6%	-8.7	-1.3
